Screening results from PubChem.
FGF22 binding: shifts melting point of recombinant human FGF22; Q9HCT0; recombinant FGF22 thermal shift, SYPRO orange fluorescence; percent of sucrose octasulfate shift, DMSO zero; calls only at 9.99 µM; hit rate 1.5% among 340,000; AID 651658;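 active = melting point raised past a set limit in the mean and every replicate; three in four hits are not shown here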
Target sequence (Q9HCT0 whole entry, looked up): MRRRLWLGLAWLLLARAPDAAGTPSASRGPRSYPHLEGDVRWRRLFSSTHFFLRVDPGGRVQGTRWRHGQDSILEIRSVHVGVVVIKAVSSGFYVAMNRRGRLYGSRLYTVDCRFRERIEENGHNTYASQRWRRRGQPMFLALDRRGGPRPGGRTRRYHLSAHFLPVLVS
HNF4A DNA FP: change in binding of human HNF4 alpha to DNA. HNF4a-FITC DNA binding, fluorescence polarization, 1 h. activity change, % at 10 µM. hit rate 0.3% among 360,000. AID 1224865; in the data active = activity change above about 30%, passing the limit was not always enough;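 note: controls were the assay level and a saturating level of protein; the project sought stronger binding though the title names inhibitors; some compounds called inactive have numbers as strong as hits; positive values seem to mean higher polarization but the record does not say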
Target sequence (P41235 whole entry, looked up): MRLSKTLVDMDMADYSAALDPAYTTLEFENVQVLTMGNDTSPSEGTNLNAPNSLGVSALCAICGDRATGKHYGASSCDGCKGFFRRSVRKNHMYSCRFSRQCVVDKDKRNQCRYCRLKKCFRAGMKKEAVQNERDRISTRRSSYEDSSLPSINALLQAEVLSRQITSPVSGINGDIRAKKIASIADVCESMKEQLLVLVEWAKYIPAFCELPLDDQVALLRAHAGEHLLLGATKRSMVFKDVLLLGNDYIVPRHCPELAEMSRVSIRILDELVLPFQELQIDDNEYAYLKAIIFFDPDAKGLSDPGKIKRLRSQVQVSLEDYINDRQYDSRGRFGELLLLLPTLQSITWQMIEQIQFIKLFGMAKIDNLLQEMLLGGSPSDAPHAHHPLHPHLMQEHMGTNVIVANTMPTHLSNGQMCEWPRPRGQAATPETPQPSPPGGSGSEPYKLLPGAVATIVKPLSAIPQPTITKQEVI
Numbers without * were called inactive; i = inactive. The list is partial. The share of hits here may be higher or lower than overall.

Start of the listing, in advance, 5 compounds:
SMILES	FGF22 binding	HNF4A DNA FP
COc1cccc(CNC(=O)COC(=O)c2ccc(N3CCCC3=O)cc2)c1	i	-2.5
CN(Cc1ccccc1)C(=O)c1ccc2nc([C@H]3C[C@H](O)[C@@H](CO)O3)[nH]c2c1	i	0.8
CSCCC(c1nc2ccccc2[nH]1)n1c(C)nc2ccccc21 (stereo unspecified)	i	2.1
CC(C)C[C@@H]1CC2=C(C(=O)OC(C)(C)O2)[C@H](CCc2ccccc2)O1	i	0.8
COc1ccc([C@H]2C[C@H](n3cc(-c4ccc(F)cc4)nn3)[C@@H](O)CN2CC2CCCCC2)cc1	i	2.0

The whole of this part, previewed entries included:
SMILES	FGF22 binding	HNF4A DNA FP
COc1cccc(CNC(=O)COC(=O)c2ccc(N3CCCC3=O)cc2)c1	i	-2.5
CN(Cc1ccccc1)C(=O)c1ccc2nc([C@H]3C[C@H](O)[C@@H](CO)O3)[nH]c2c1	i	0.8
CSCCC(c1nc2ccccc2[nH]1)n1c(C)nc2ccccc21 (stereo unspecified)	i	2.1
CC(C)C[C@@H]1CC2=C(C(=O)OC(C)(C)O2)[C@H](CCc2ccccc2)O1	i	0.8
COc1ccc([C@H]2C[C@H](n3cc(-c4ccc(F)cc4)nn3)[C@@H](O)CN2CC2CCCCC2)cc1	i	2.0
CCCNC(=O)C1(C)CCN(Cc2cc3ccccc3o2)C1 (stereo unspecified)	i	-1.4
C[C@@H]1ON(C)[C@H]2C[C@H]3c4[nH]c5ccc(-c6ccc7c(c6)OCO7)cc5c4CCN3C[C@@H]12	i	5.3
CC(C)C[C@H]1CN([C@@H](Cc2ccc(O)cc2)CN2CCC[C@H]2CN2C(=O)C(=O)NC[C@@H]2Cc2ccccc2)C(=O)C(=O)N1CC1CCCCC1	i	1.1
O=C(Nc1ccc(S(=O)(=O)Nc2ncccn2)cc1)c1cccc([N+](=O)[O-])c1	i	-0.4
Cc1ccc(S(=O)(=O)N2[C@@H](CO)CO[C@H]2CC(=O)c2ccccc2)cc1	i	3.0
Cc1cccc(NC(=O)CNC(=O)[C@H]2O[C@@H](n3cnc4c(N)ncnc43)[C@H](O)[C@@H]2O)c1C	i	-1.8
Cc1cc(F)cc(-c2cc(C(=O)NCc3ccco3)[nH]n2)c1	i	-0.8
Cc1nccn1-c1ccc(NC(=O)[C@H]2O[C@@H](n3ccc(N)nc3=O)[C@H](O)[C@@H]2O)cc1	i	-2.3
COC(=O)C[C@H]1CC[C@H](NC(=O)Nc2ccccc2F)[C@@H](CO)O1	i	-3.8
Cc1cc(C)n2c(Nc3ccc4c(c3)OCCO4)c(-c3ccc(F)cc3)nc2n1	i	0.1
Oc1c(C(c2ccccc2)N2CCCCC2)ccc2ccccc12 (stereo unspecified)	i	-1.6
Cc1cccc(C#CC2=CC(=O)CC(C)(C)C2)c1	i	0.7
O=C(NCc1ccc(F)cc1F)[C@@H]1CCCN1C(=O)[C@@H]1CCCN1C(=O)c1cccc2ccccc12	i	-5.6
O=C(NCc1ccccc1)C(C1CC1)n1c(Cc2cc(F)cc(F)c2)nc2ccccc21 (stereo unspecified)	i	4.4
Cc1nc2cc(Oc3nc(NCCN(C)C)nc4ccsc34)ccc2s1	i	0.7
COC(=O)c1ccc2nc(C3CCCCC3)c(Cc3cccc(Cl)c3)n2c1	i	-0.1
COCCNc1ncnc2c1ncn2[C@H]1CN(Cc2ccco2)C[C@@H](CO)O1	i	1.2
OC(c1ccc(F)cc1)c1nc(-c2ccc(Cl)cc2)cs1 (stereo unspecified)	i	4.5
COC(=O)C[C@H]1C=C[C@H](NC(=O)c2ccc(F)cc2)[C@@H](CO)O1	i	2.1
COc1ccc(CNc2cccnc2Cl)cc1	i	-0.3
Next compounds
SMILES	FGF22 binding	HNF4A DNA FP
O=C1c2ccccc2C(c2nnnn2-c2ccc3c(c2)OCCO3)N1Cc1ccc2c(c1)OCO2 (stereo unspecified)	i	7.1
CC(=O)Nc1cc(-c2ccccc2F)cn2c(-c3cccc(C(F)(F)F)c3)cnc12	i	0.1
CC1(C)CC(=O)C=C(c2ccc(Oc3ccccc3)cc2)C1=O	i	-2.9
CC(=O)OCC(=O)C1(O)CCC2C3CCC4CC(O)CCC4(C)C3C(=O)CC21C (stereo unspecified)	i	-0.2
COc1ccc(-c2cc(C(=O)Nc3ccc(OC)c(OC)c3)[nH]n2)c(C)c1	i	-0.5
CC1(C(=O)NS(=O)(=O)c2cccc(F)c2)CCN1C(=O)CCc1ccccc1 (stereo unspecified)	i	1.1
N#Cc1ccccc1C[C@H](N)C(=O)NC[C@H]1O[C@@H](n2cnc3c(N)ncnc32)[C@H](O)[C@@H]1O	i	3.4
CCCCCCNC(=O)O[C@H]1Cn2c(=O)n(CCCCCC)c(=O)n2[C@@H]2CN(S(=O)(=O)c3ccc(C)cc3)C[C@]12O	i	-0.2
c1cncc(CN2CCN(c3cc(-c4cnc5ccccc5c4)nc4ccnn34)CC2)c1	i	2.2
N#Cc1cnn2c(=O)[nH]cnc12	i	1.7
CC1(C(=O)O)CCCN(C(=O)c2ccc(F)cc2Cl)C1 (stereo unspecified)	i	2.0
c1ccc(-c2csc(Nc3ccc4c(c3)OCO4)n2)cc1	i	-0.9
CC(O)(c1cccc(F)c1)c1nc(-c2ccc3c(c2)OCO3)cs1 (stereo unspecified)	i	-6.4
COCOc1cccc(CN2CCC(C)(Oc3ccc(C(C)=O)cc3)C2)c1 (stereo unspecified)	i	-4.4
CCOC(=O)C1=CC[C@@H](c2ccc(OC)cc2)N(S(=O)(=O)c2ccc(C)cc2)[C@H]1CC	i	-0.4
CC(=O)Oc1ccccc1Cn1c(C)c(C(=O)NCc2cccc(Cl)c2)sc1=O	i	-1.6
CCOC(=O)C1=CCN(S(=O)(=O)c2ccccc2[N+](=O)[O-])C1c1ccc(C)cc1 (stereo unspecified)	i	-1.8
CC(C)C[C@H]1CN(CCCC[C@@H]2CNC(=O)C(=O)N2Cc2ccccc2)C(=O)C(=O)N1CCc1ccccc1	i	0.1
CCCCc1c(-c2ccccc2OC)ncn1CCc1ccc(Cl)cc1	i	2.8
CN1CCN(c2ccc(CNC[C@H]3O[C@@H](n4cnc5c(=O)[nH]c(N)nc54)[C@H](O)[C@@H]3O)c(S(C)(=O)=O)c2)CC1	i	1.4
O[C@H]1CN(CC2CCCCC2)[C@@H](c2ccc(Cl)cc2)C[C@@H]1n1cc(-c2ccc(F)cc2)nn1	i	-0.5
COC(=O)C1=CN(c2ccc(F)cc2)C(N)=C(C#N)C1c1ccccc1 (stereo unspecified)	i	1.6
COCCNC(=O)C1(C)CCCN(C(=O)c2ccc(C)c(F)c2)C1 (stereo unspecified)	i	-4.5
C[C@H](O)[C@@H]1C(=O)N2CCc3ccc(N4CCN(C)CC4)cc3[C@@H]2C[C@@H]1N(C)C(=O)c1cccnc1	i	0.7
CSc1cnn(CCC#N)c(=O)n1	i	2.5

An excerpt of these results, field by field.
Compound: CCOC(=O)C1=CCN(S(=O)(=O)c2ccccc2[N+](=O)[O-])C1c1ccc(C)cc1 (stereo unspecified)
  FGF22 binding: i	HNF4A DNA FP: -1.8

Compound: CC1(C)CC(=O)C=C(c2ccc(Oc3ccccc3)cc2)C1=O
  FGF22 binding: i	HNF4A DNA FP: -2.9

Compound: COc1ccc(-c2cc(C(=O)Nc3ccc(OC)c(OC)c3)[nH]n2)c(C)c1
  FGF22 binding: i	HNF4A DNA FP: -0.5

Compound: COCOc1cccc(CN2CCC(C)(Oc3ccc(C(C)=O)cc3)C2)c1 (stereo unspecified)
  FGF22 binding: i	HNF4A DNA FP: -4.4

(next part)
SMILES	FGF22 binding	HNF4A DNA FP
COc1ccc(NC(=O)c2cc(C3CCCCN3S(=O)(=O)c3ccc(C#N)cc3)on2)c(C)c1 (stereo unspecified)	i	3.9
CCC(=O)N1CCC1(C)C(=O)Nc1cccc(OC)c1OC (stereo unspecified)	i	0.9
O=C(/C=C/[C@H]1O[C@@H](n2ccc(=O)[nH]c2=O)[C@H](O)[C@@H]1O)N1CCN(Cc2ccc(F)cc2)CC1	i	2.9
CNC(=O)C[C@H]1C(=O)N(c2ccc(OC)cc2)C[C@@H]1CSC	i	0.9
Cc1ccc(S(=O)(=O)N2CCC(C(=O)NCCN3CCOCC3)CC2)cc1	i	1.9
CC(C)C1C(=O)N(Cc2cn(Cc3ccco3)nn2)CCS(=O)(=O)N1Cc1ccc(-c2ccc(F)cc2)cc1 (stereo unspecified)	i	4.2
Cc1ccc(Cc2c(-c3cccc(Br)c3)nc3cc(C)c(Br)c(C)n23)cc1	i	4.6
CCC(C(=O)NC1CCCC1)n1c(C2CCCC2)nc2ccccc21 (stereo unspecified)	i	-2.8
O=C(CCN1CCCCC1)Nc1ccc(F)c(F)c1	i	-0.1
c1ccc(NN=C(c2ccccc2)c2cccs2)cc1	i	0.0
O=C(CC1CC1)Nc1ccc2c(c1)[C@H]1C[C@H](CC(=O)N3CCc4ccccc4C3)O[C@@H](CO)[C@H]1O2	i	2.6
O=c1ccoc2ccccc12	i	-5.4
N#Cc1ccc(-c2nc3ccc(Cl)cn3c2Cc2cccc(Cl)c2)cc1	i	7.8
CCCCN(C(C)=O)c1c(CC)nc2ccc(C(=O)NCc3cccs3)cn12	i	1.0
O=S(=O)(NN=C(c1ccccc1)c1ccccc1)c1ccccc1	i	1.7
CC1=C(C(=O)N(C(C)C)C(C)C)CC(CC(=O)NCc2ccco2)C(=O)N1Cc1ccc(C(C)(C)C)cc1 (stereo unspecified)	i	-0.4
CC1(Cc2cccc(F)c2)C(=O)Nc2ccc(S(=O)(=O)NC3CCCCC3)cc21 (stereo unspecified)	i	-2.4
CCCS(=O)(=O)NC(=O)C1(C)CCCN(C(=O)c2sccc2C)C1 (stereo unspecified)	i	-1.0
CCOc1ccccc1OCCCC(=O)N1CCN(S(=O)(=O)c2ccccc2C#N)CC1	i	0.3
O=C(Nc1ccnn1C1CCN(Cc2ccc(CO)o2)CC1)c1cccc(F)c1	i	-0.9
CSc1ccccc1C(=O)OCC(=O)Nc1c(C)n(C)n(-c2ccccc2)c1=O	i	-2.9
CCC(=O)N1CCCC(C)(C(=O)Nc2ccc3oc(CC)nc3c2)C1 (stereo unspecified)	i	-1.4
Cc1ccc(S(=O)(=O)N2C[C@H]3C(=O)C[C@@H](c4ccccc4)N(S(=O)(=O)c4ccc(C)cc4)[C@H]3C[C@H]2c2ccccc2F)cc1	i	-1.1
O=C(Nc1cccc(C(F)(F)F)c1)c1csc([C@@H]2O[C@H](CO)[C@@H](O)[C@H]2O)n1	i	0.5
Cc1ccc(-c2ccc(C3=CC(=O)CC(C)(C)C3=O)cc2)cc1	i	-0.2
Next section:
SMILES	FGF22 binding	HNF4A DNA FP
CN(C)c1cccc(CNC(=O)c2csc([C@@H]3O[C@H](CO)[C@@H](O)[C@H]3O)n2)c1	i	-3.3
Cc1ccc(N(C)S(=O)(=O)c2cccc(C(=O)OCC(=O)N(C)Cc3ccccc3)c2)cc1	i	3.2
COc1ccc(NC(=O)C2(C)CCN2CC2CCCCC2)cc1OC (stereo unspecified)	i	0.0
COc1cccc(C(NC(C)=O)c2nc(-c3ccc(C)c(C)c3)cs2)c1 (stereo unspecified)	i	-63
NC(c1csc(Nc2ccc(C(=O)c3ccccc3)cc2)n1)C1CCCCC1 (stereo unspecified)	i	3.1
CC1(C(=O)NS(=O)(=O)c2ccccc2)CCN1C(=O)CCc1ccc(Cl)cc1Cl (stereo unspecified)	i	-1.3
O=C(NCCN1CCOCC1)c1ccc2c(c1)N(Cc1cccc(Cl)c1)C(=O)c1ccccc1S2(=O)=O	i	1.8
OC[C@H]1O[C@@H](c2nc3ccc(-c4nc(-c5ccc(Br)cc5)no4)cc3[nH]2)C[C@@H]1O	i	0.8
CCc1nc2c(OCC(=O)c3ccc(F)cc3)cccn2c1N(C)C(=O)COc1ccccc1	i	-0.3
COc1ccc2c(CN3CCN(c4ccccc4F)CC3)cc(=O)oc2c1	i	-2.2
CC1(C)CC(=O)C(C(c2ccc3c(c2)OCO3)C2C(=O)CC(C)(C)CC2=O)C(=O)C1	i	1.6
Cc1ccc(NC(=O)COC(=O)c2ccco2)cc1S(=O)(=O)N1CCCCC1	i	4.5
COCc1ccc(CN2CCC(n3nccc3NC(=O)c3ccc4c(c3)OCO4)CC2)o1	i	3.2
COc1ccc(-c2nc3c(C)cc(Br)cn3c2Cc2ccccc2)cc1OC	i	2.7
COc1ccc(N2c3ccccc3CN(Cc3ccccc3)[C@@H](C)[C@H]2Cc2c(C)cccc2C)cc1	i	-0.4
CCc1ccc(-c2ccc(SCC(=O)NC3CCCC3)nn2)cc1	i	1.2
CC(=O)Nc1ccc(NC(=O)C2CCN(S(C)(=O)=O)CC2)cc1	i	2.9
Cc1cccc(C)c1NC(=O)C(c1ccccc1)n1c(-c2ccccc2)nc2ccccc21 (stereo unspecified)	i	3.3
Cc1ccccc1CN1C(=O)CSCC1(C)C(=O)NCc1ccccc1 (stereo unspecified)	i	2.9
COc1ccc(C(=O)C[C@@H]2OC[C@H](Cc3ccccc3)N2S(=O)(=O)c2ccc(C)cc2)cc1OC	i	-2.2
CC(=O)Nc1cc(-c2ccc(F)cc2)cn2c(-c3ccc(S(C)(=O)=O)cc3)cnc12	i	9.3
Clc1ccc2c(c1)-c1ccccc1C1=NCCN12	i	-13
O=C(NCc1cccnc1)OC1CC2CC1[C@H]1CCCCN1C2=O (stereo partly specified)	i	-5.3
C[C@H]1CN([C@@H](C)CO)C(=O)CCCn2nncc2CO[C@H]1CN(C)C(=O)Nc1cccc(Oc2ccccn2)c1	i	-1.9
CCCc1nc2ccc(C)cn2c1Cc1cccc(Cl)c1	i	3.1
CC(C)Oc1ccc(F)cc1-c1cc(C(=O)N2CCc3ccccc3C2)[nH]n1	i	4.2
CN(C)c1ccc2nc3ccc(=O)cc-3sc2c1	i	-18
COc1ccc(NC(=O)c2c(C)noc2C)cc1S(=O)(=O)N1CCCCC1	i	-3.5
O=C(c1cc(C2CCCCN2C(=O)CCCc2ccccc2)on1)N1CCOCC1 (stereo unspecified)	i	7.2
